miR-21 reporter = qHTS Assay for Modulators of miRNAs and/orActivators of miR-21; HeLa miR-21 FLuc reporter, luciferase, 48 h; Potency, µM (doses to about 38.3 µM), for the others: at the top dose reporter change, positive = more light; 340,000 tested, under 10 active; active = well fitted rising curve with a large enough effect; inconclusive = small, poorly fitted or top-dose-only effect; inactive = no such curve, though single readings can be large or run the other way;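 note: % of control where 0% means no effect; miR-21 action dims this reporter so a rising signal means less miR-21 action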
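HeLa cells stably expressing CMV-driven firefly luciferase with a downstream miR-21 binding sequence, endogenously expressing miR-21, were treated with titrations (up to about 40uM final) for 48 hours at 37 degree Celsius. Luciferase luminescence was read after lysis.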
Rango release inh = qHTS Assay for Inhibitors of RanGTP induced Rango (Ran-regulated importin-beta cargo) - Importin beta complex dissociation; Snurportin-1 (Homo sapiens) + GTP-binding nuclear protein Ran (Homo sapiens) + Importin …; Biochemical FRET Rango-importin beta, RanGTP-induced dissociation; Potency, µM (doses to about 46.1 µM), without a hit: top-dose activity change, negative = inhibition; 340,000 tested, 0.071% active; AID 540253, 2011; active means falling FRET ratio curve, often poorly fitted, with flat reads before Ran was added; inconclusive means other falling curves, or compound fluorescence or quenching; inactive means flat or rising ratio curve;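 note: potency is the fitted concentration of half-maximal effect; % of control where 0% means no effect; nearly all actives have a fitted effect of over 45% in size; -100% = wells without RanGTP and RCC1; the record marks most hits as doubtful in a second field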
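Recombinant Rango FRET biosensor (EYFP–snurportin 1 IBB–cerulean CFP10) at 0.1 uM premixed with 0.25 uM importin beta in PBS, 1 mM DTT, 0.02% Tween-20, 0.1% BSA. Compound added 5 min; RanGTP-RCC1 (0.6 uM Ran, 2 mM GTP, 0.2 uM RCC1) then triggers release, read at 45 min.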
Rango-impB inh = qHTS Assay for Inhibitors of Rango (Ran-regulated importin-beta cargo) - Importin beta complex formation; 340,000 tested, 0.031% active; Potency, µM (series often up to 92.2 µM), for inactives: top-dose inhibition of complex formation; AID 540263, 2011; Rango CFP/YFP FRET sensor + importin beta, 45 min; Importin subunit beta-1 (Homo sapiens), Q14974; active = rising FRET ratio curve, often small or poorly fitted; inconclusive = mostly compound fluorescence or quenching in the first reads; inactive = flat curves in all reads;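 note: potency is the fitted concentration of half-maximal effect; 0% = DMSO wells and 100% = buffer wells lacking importin beta; nearly all actives have a fitted effect of over 15% in size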
Target sequence (Q14974 whole entry, looked up): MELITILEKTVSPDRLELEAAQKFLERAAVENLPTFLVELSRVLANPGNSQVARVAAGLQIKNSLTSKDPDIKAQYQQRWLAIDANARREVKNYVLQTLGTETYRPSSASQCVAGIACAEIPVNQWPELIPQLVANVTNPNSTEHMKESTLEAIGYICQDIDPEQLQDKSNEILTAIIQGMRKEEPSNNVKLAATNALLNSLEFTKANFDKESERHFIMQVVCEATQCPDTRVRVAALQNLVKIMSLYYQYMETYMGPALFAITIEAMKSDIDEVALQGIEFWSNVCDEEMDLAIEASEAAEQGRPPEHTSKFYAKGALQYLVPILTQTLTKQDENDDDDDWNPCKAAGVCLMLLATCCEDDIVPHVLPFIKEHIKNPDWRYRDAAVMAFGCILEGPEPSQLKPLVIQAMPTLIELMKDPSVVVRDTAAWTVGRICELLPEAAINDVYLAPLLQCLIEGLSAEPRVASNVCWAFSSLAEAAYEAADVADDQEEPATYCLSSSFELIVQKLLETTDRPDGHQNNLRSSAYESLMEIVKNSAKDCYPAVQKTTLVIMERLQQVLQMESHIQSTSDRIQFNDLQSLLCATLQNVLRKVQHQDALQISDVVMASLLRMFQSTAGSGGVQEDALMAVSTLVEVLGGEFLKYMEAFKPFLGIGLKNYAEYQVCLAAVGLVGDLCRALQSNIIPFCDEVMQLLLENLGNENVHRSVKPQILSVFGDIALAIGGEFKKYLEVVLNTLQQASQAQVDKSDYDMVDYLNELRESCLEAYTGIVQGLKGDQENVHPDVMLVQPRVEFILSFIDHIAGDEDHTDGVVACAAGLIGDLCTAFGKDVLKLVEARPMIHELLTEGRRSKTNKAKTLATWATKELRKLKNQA
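FRET biosensor Rango (snurportin 1 IBB between N-terminal EYFP and C-terminal Cerulean), 50 nM in PBS/1 mM DTT/0.02% Tween-20/0.1% BSA, preincubated 5 min RT with compound; 0.125 microM importin beta added, 45 min RT, CFP/YFP FRET ratio read.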
GLA inh pH 4.5 = qHTS Assay for Inhibitors of Human alpha-Galactosidase at pH 4.5; Alpha-galactosidase A (Homo sapiens), P06280; purified enzyme, 4-MU-alpha-Gal fluorescence, pH 4.5; activity change, negative = inhibition, % at 105 µM; 230,000 tested, under 10 active; AID 1467, 2008; inconclusive = small, poorly fitted or top-dose-only inhibition, or a rising curve; inactive = flat fitted curve, though single readings scatter; no compound was filed as active;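 note: 0% = full activity with enzyme and -100% = basal without enzyme; dose as in the result columns while the protocol names 77 µM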
Active calls of the source: *; u = inconclusive; x = not tested or not shown; & = joins results of further samples.

smiles	miR-21 reporter	Rango release inh	Rango-impB inh	GLA inh pH 4.5
O=C(COc1ccc(Cl)cc1)Nc1ccc2c(c1)OCO2	-34%	-16%	0.4%	x
Cc1cc(C)cc(N(C(=O)CNC(=O)c2ccco2)C(C(=O)NC2CCCC2)c2ccncc2)c1 (stereo unspecified)	-4%	12%	-4.5%	x
O=C(c1cc(COc2ccc(F)cc2Cl)on1)N1CCC(c2ccncc2)CC1	10%	-8%	-1.4%	-3
COc1ccccc1N1CCN(C(=O)C(CC(C)C)NC(=O)C2CCCCC2)CC1 (stereo unspecified)	1%	4%	-1.2%	x
CSc1ccc(S(=O)(=O)N2CCC(C(=O)NCc3cccnc3)CC2)cc1	-1%	9%	0.1%	x
COC(=O)Cc1ccc(NC(=S)N2CCN(c3ccccn3)CC2)cc1	5%	-9%	1.6%	x
O=C(Cc1csc(NC(=O)Nc2ccc(Cl)cc2)n1)NCc1ccccn1	x	-9%	-3.4%	x
O=C(NCc1ccc(Cl)cc1)c1cc2c(s1)CS(=O)(=O)C2	-12%	6%	-4.4%	x
O=S(=O)(c1ccc(-c2csc(Nc3ccc(Br)cc3)n2)cc1)N1CCCC1	5%	-8%	1.2%	9
CCOc1ccc(C(C(=O)NC(C)(C)C)N(CCOC)C(=O)CCC(=O)Nc2ccccn2)cc1 (stereo unspecified)	0%	-6%	-2.5%	x
O=C(CCC(F)(F)F)N1CCCC(CO)(CCc2ccccc2)C1 (stereo unspecified)	1%	18%	3.0%	x
O=C(CSc1nc(=O)n(CCCN2CCOCC2)c2c1CCCC2)Nc1ccc(Cl)cc1	x	8%	-5.1%	x

(listing goes on)
smiles	miR-21 reporter	Rango release inh	Rango-impB inh	GLA inh pH 4.5
Nc1nnc(/C=C/c2ccccc2)s1	-36%	0%	0.1%	3
O=C1CN(C(=O)COC(=O)C2CC(=O)N(Cc3ccco3)C2)c2ccccc2N1 (stereo unspecified)	2%	-2%	-0.4%	3
c1ccc(-c2csc(N3CCOCC3)n2)cc1	-44%	-6%	-0.3%	-4
CCOC(=O)C1CCCN(S(=O)(=O)CCNC(=O)c2ccccc2)C1 (stereo unspecified)	x	0%	6.7%	x
CC(=O)Nc1cccc(OCCCNC(=O)C2CCC2)c1	-2%	11%	0.3%	3
Clc1ccc(OCCN2CCCCC2)cc1Cl	-6%	-11%	-1.0%	-2
COc1cc(/C=C/C(=O)OC[C@H]2O[C@H](OC3(CO)OC(CO)C(O)C3O)[C@H](O)[C@@H](O)[C@@H]2O)ccc1O (stereo partly specified)	x	4%	-5.5%	x
c1ccc(C(c2ccccc2)c2ccn[nH]2)cc1	-23%	11%	2.4%	x
CCCCN(Cc1cc2cc(OC)ccc2[nH]c1=O)S(=O)(=O)c1ccc(C)cc1	10%	6%	0.5%	x
COc1ccc(/C=C/C(=O)OCC(=O)NCc2ccco2)c(OC)c1	-1%	-3%	6.0%	1
CC(NS(=O)(=O)c1ccc2c(c1)c(=O)n(C)c(=O)n2C)C(=O)NC1CCCCC1 (stereo unspecified)	1%	0%	-0.9%	x
COCCn1c(COc2cccc(OC)c2)nnc1SCC(=O)NC1CCCCC1	10%	2%	-1.0%	x

Ordered by length of the SMILES (highest first): part of the list above
smiles	miR-21 reporter	Rango release inh	Rango-impB inh	GLA inh pH 4.5
O=C(c1cc(COc2ccc(F)cc2Cl)on1)N1CCC(c2ccncc2)CC1	10%	-8%	-1.4%	-3
CCOC(=O)C1CCCN(S(=O)(=O)CCNC(=O)c2ccccc2)C1 (stereo unspecified)	x	0%	6.7%	x
COc1ccc(/C=C/C(=O)OCC(=O)NCc2ccco2)c(OC)c1	-1%	-3%	6.0%	1

Later entries.
smiles	miR-21 reporter	Rango release inh	Rango-impB inh	GLA inh pH 4.5
COc1ccccc1CCNC(=O)C(=O)NCC1OCCN1S(=O)(=O)c1ccc([N+](=O)[O-])cc1 (stereo unspecified)	6%	2%	-1.2%	x
O=C(Nc1csnn1)OCc1ccccc1	x	-2%	u	x
COc1ccc2c(c1OC)C(=O)OC2N1C(=O)CC[C@H]1C(=O)Nc1ccc2c(c1)OCO2 (stereo partly specified)	-10%	0%	0.4%	x
NC(=O)c1ccccc1-c1nc(-c2ccccc2)no1	-52%	1%	-3.2%	2
Cc1ccccc1NC(=O)CC(C)S(=O)(=O)c1ccc2c(c1)NC(=O)CO2 (stereo unspecified)	7%	2%	0.0%	x
Cc1coc2c(C)c3oc(=O)c(CC(=O)N[C@@H](CC(C)C)C(=O)O)c(C)c3cc12	1%	-7%	-0.2%	x
O=C(c1ccc(Cl)cc1)C1CCN(C(=O)c2ccc(F)cc2)CC1	4%	8%	-0.5%	x
O=C(CSc1nccn1Cc1ccc(F)cc1)NC1CCCC1	3%&-2%	-2%	-1.5%	x
CCOC(=O)c1c(NC(=O)CCCC(=O)O)sc2c1CCC2	-8%	-4%	-1.6%	6
CCCc1ccc(OCc2ccccc2)c2c(=O)cc(C(=O)OCC)oc12	1%	12%	5.0%	5
O=C(c1ccc(C#CC2(O)CCCCC2)cc1)N1CCOCC1	-26%	1%	-0.3%	-11
O=C(CSCc1ccc(Cl)cc1)Nc1nccs1	-10%	4%	3.8%	-1

Going on with the list:
smiles	miR-21 reporter	Rango release inh	Rango-impB inh	GLA inh pH 4.5
CCn1cc(Br)c(C(=O)Nc2ccc(C(=O)OC(C)C)cc2)n1	-16%	u	u	7
Cc1cc(Cl)ccc1OCC(=O)NC1CCCC1	-3%	18%	-0.4%	-24
O=C1/C(=C/c2ccncc2)N=C2CCCCCN12	0%	14%	-2.5%	9
O=C(NCCc1ccc(Cl)cc1)Nc1cccc(Cl)c1	13%	-10%	0.2%	-2
Cc1ccc(C)c(NC(=S)NNC(=O)c2csc(C)c2)c1	-26%	13%	5.9%	-1
Cc1cc(C)cc(C(=O)NN2CCN(C)CC2)c1	0%	3%	-0.8%	-16
Cc1c(C#N)c(N=CN(C)C)c(C(=O)c2ccccc2)n1-c1ccc(Br)cc1	-10%	4%	-7.8%	9
COc1ccc(Cl)cc1NC(=O)/C=C\C(=O)O	5%	-15%	-0.3%	10
COc1ccc(S(=O)(=O)N(CC(=O)O)c2ccccn2)cc1	3%	14%	4.0%	1
O=C(NCc1ccccn1)c1ccc(OC2CCN(Cc3ccccc3)CC2)cc1	1%	-2%	-1.6%	x
COc1ccc(CCN(Cc2nc(-c3ccccc3)no2)Cc2nc(-c3ccccc3)no2)cc1OC	-8%	-2%	4.6%	-11
O=C(c1ccc2c(=O)n(CCc3ccccc3)c(=O)[nH]c2c1)N1CCN(c2ccccc2)CC1	-1%	4%	-2.4%	x

Continuation:
smiles	miR-21 reporter	Rango release inh	Rango-impB inh	GLA inh pH 4.5
CC(NC(=O)CCC(=O)NC(C)c1ccccc1)c1ccccc1 (stereo unspecified)	2%	0%	1.8%	x
O=[N+]([O-])c1cccc(-c2nc(-c3ccccc3)c(-c3cccs3)[nH]2)c1	1%	2%	0.5%	3
COc1ccc(Cl)cc1NC(=O)C/C(C)=N/NC(=O)C(=O)NCc1ccccc1	5%	12%	-3.6%	x
Cc1nc(NCCc2ccccc2)c2nnn(Cc3ccccc3)c2n1	0%	-11%	3.0%	x
O=C(CC12CC3CC(CC(C3)C1)C2)N/N=C/c1ccc([N+](=O)[O-])o1	-4%	29%	-1.4%	-6
Cc1ccc(OCC(=O)N(C)CC(=O)Nc2ccc(F)c(F)c2F)cc1	x	u	5.6%	x
COc1ccc(/C=N\NC(=O)c2ccccc2Cl)cc1COc1c(F)c(F)c(F)c(F)c1F	2%	-17%	0.7%	x
COc1cccc(NC(=S)N2CCC(c3ccc(C)cc3)C2)c1 (stereo unspecified)	-39%	5%	-1.2%	x
CCOC(=O)C1=C(c2ccccc2)Nc2ncnn2C1c1ccccn1 (stereo unspecified)	4%	-5%	6.8%	6
COc1cc2c(cc1NC(=O)c1ccncc1)oc1ccccc12	-43%	-7%	-0.2%	-3
O=C(c1cc(=O)c2ccccc2o1)N1CCN(c2ccccc2F)CC1	-11%	u	-5.7%	-8
CC(C)Sc1nc2sc(-c3ccccc3)cc2c(=O)n1N	-4%	-16%	-1.9%	9

(further entries)
smiles	miR-21 reporter	Rango release inh	Rango-impB inh	GLA inh pH 4.5
COc1ccc(/C=C/C(=O)Oc2ccc(C=O)cc2OC)cc1	x	-9%	0.0%	x
CCn1c(SC(C)C(=O)Nc2nnc(C)s2)nnc1-c1ccco1 (stereo unspecified)	10%	2%	-2.0%	x
O=C1CSC(c2c(F)cccc2Cl)N1c1cccc(F)c1 (stereo unspecified)	1%	-9%	-1.3%	2
Cc1ccc(COC(=O)c2ccc3c(c2)C(=O)N(CCCN2CCOCC2)C3=O)cc1	0%	3%	-2.6%	4
COc1cc2[nH]c(=S)nc(NCCCOC(C)C)c2cc1OC	-1%	-15%	-0.3%	-1
Cc1nc(C)c(C(=O)OCC(=O)Nc2cccc(C)c2C)s1	x	5%	-1.6%	x
NC(=O)c1cc(S(=O)(=O)Nc2cccc(Cl)c2)cs1	1%	7%	-0.9%	x
CCOc1cc(/C=N\O)cc(Cl)c1OCC	-10%	18%	-0.3%	-5
CCOC(=O)NC(=O)/C(C#N)=N\Nc1cccc(Cl)c1	1%	-9%	0.4%	-3
CCCc1cc(=O)[nH]c2nnc(SCC(=O)Nc3cc(C)on3)n12	x	23%	-1.1%	x
CCOC(=O)CN1C(=O)COc2ccc(Cl)cc21	-7%	13%	-2.6%	2
CCN(CC(=O)Nc1c(F)cccc1F)C(=O)c1ccc2c(=O)n3c(nc2c1)CCC3	x	7%	-3.1%	x

(cont.)
smiles	miR-21 reporter	Rango release inh	Rango-impB inh	GLA inh pH 4.5
COc1cccc(-c2csc(N3CCN(S(=O)(=O)c4ccc(F)cc4)CC3)n2)c1	7%	-9%	6.3%	0
CCSC(=S)Nc1c(C)n(C)n(-c2ccccc2)c1=O	-8%	-11%	-0.1%	6
COCc1cc(C)nc2sc(C(=O)N3CCN(c4ccccc4)CC3)c(N)c12	-13%	-29%	u	-3
O=C1C(NS(=O)(=O)c2cccs2)=C(N2CCN(c3ccccc3)CC2)C(=O)c2ccccc21	-15%	-1%	-2.4%	-5
N#Cc1ccc(Oc2cnccn2)cc1	-2%	-4%	-3.0%	x
CCOC(=O)c1nn(-c2cccc(Cl)c2)c2nc(CC(C)C)c(C#N)c(=O)n12	-1%	-4%	8.5%	-18
CCCCN(C(=O)COC(=O)c1nc2nccc(C)n2n1)C1CCS(=O)(=O)C1 (stereo unspecified)	x	2%	-2.4%	x
Cc1occc(=O)c1OCc1ccccc1	1%	0%	0.2%	1
Nc1nn(S(=O)(=O)c2cccc3nsnc23)cc1-c1ccc(Br)cc1	-2%	18%	-4.1%	-11
CCCCN(Cc1ccco1)S(=O)(=O)c1ccc(-c2ccc(=O)[nH]n2)s1	-9%	-11%	-0.1%	x
O=C(NC1CCCC1)c1nc2c(nnn2Cc2ccccc2Cl)c(=O)[nH]1	-6%	3%	2.9%	1
COCC(C)n1c(SCc2cc(=O)n3cc(C)ccc3n2)nc2ccccc2c1=O (stereo unspecified)	27%	36%	1.4%	2

(continued)
smiles	miR-21 reporter	Rango release inh	Rango-impB inh	GLA inh pH 4.5
Cn1c(=O)oc2cc(S(=O)(=O)N3CCN(C(=O)c4ccco4)CC3)ccc21	x	19%	3.9%	x
Cc1ccc(S(=O)(=O)N2CCN(C(=O)CC(C)n3cncn3)CC2)cc1C (stereo unspecified)	2%	1%	-2.3%	x
CC(C(=O)OCC(=O)c1c(N)n(C)c(=O)n(C)c1=O)N1C(=O)c2ccccc2C1=O (stereo unspecified)	0%	-3%	-2.4%	9
Cn1c(CCCNC(=O)c2ccccc2)nc2ccccc21	-12%	-25%	-1.9%	4
O=c1oc2ccccc2c(Nc2ccc(Cl)cc2)c1[N+](=O)[O-]	20%	12%	-5.7%	-3

Screening data as filed in PubChem BioAssay.

Some of the compounds tested. The share of hits here may be higher or lower than overall.
